# Bead autofluor = counter-screen for toxin protease inhibitors: compound fluorescence; compound autofluorescence counterscreen, microsphere flow cytometry; hits give high values; fluorescence intensity (no concentration beside the values); hit rate 3.1% among 360,000; AID 624483;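 active = at least 3 SD above the mean of all compounds, about 16000 in these data; inconclusive = too few beads counted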;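 note: 100 nL of 1 mM stock went into each well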
# PrP UTR inh = suppresses PrP 5' UTR mRNA reporter expression; cell-based PrP 5' UTR mRNA reporter, plate reader; inhibition, % (concentration not given with the values); hit rate 0.35% among 340,000; AID 488862;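 active = every replicate at 50% or more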;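 note: 0 = median of the neutral control wells; tested in H4 reporter cells; numbers are from one replicate; inactives centre near -14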
# RN4220 kill = kills Staphylococcus aureus RN4220. S. aureus RN4220 growth, OD600, 16 h. AID 1259311. inhibition, % (concentration not given with the values). hit rate 0.33% among 330,000;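 active = z-score of -3 or lower and OD600 up to 0.18 on both plates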;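 note: plate controls were untreated cells for no effect and reference antibiotic for full effect; stock transfer was 100 nL into about 80 µL; one replicate is shown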
# Mtb hypoxia inh = inhibitors of hypoxia-regulated fluorescent reporter in Mycobacterium tuberculosis; M. tuberculosis hypoxia-regulated fluorescent reporter, fluorescence; fluorescence inhibition, % (test concentration not listed); hit rate 0.1% among 300,000;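 active = 35 to 45% if threefold the growth effect, above 45% if 1.5-fold the growth effect; inactive = the rest, general growth blockers included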;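 note: wells of about 50 µL received 100 nL stock; 0% = vehicle wells and 100% = reference inhibitor wells; whole bacteria with a GFP reporter of the hypoxia response; strong numbers were not always called active; many hits fall short of the cut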
# BJeLR viability = kills HRASV12-expressing BJeLR cells. hit rate 0.17% among 300,000. BJeLR (HRASV12) viability, CellTiter-Glo ATP luminescence, 48 h; reference of the scale not given here. inhibition, % (concentration not given with the values);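 active = replicate mean above 50%; inconclusive = above 50% but judged a plate artefact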;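 note: 50 nL library stock added to about 25 µL; numbers are from one replicate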
# ugtP null kill = compounds lethal to S. aureus RN4220 ugtP deletion mutant | OD600 growth, 16 h; some inactives read as strong as hits | growth inhibition, % (test concentration not listed) | hit rate 0.54% among 330,000 | AID 1259309;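 active = z-score under -3 and OD600 up to 0.15 on both plates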;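 note: plate controls were untreated wells for no effect and antibiotic for full effect; wells of about 80 µL received 100 nL stock; the first replicate is given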
# Mtb hypoxia inh growth = also measured in Mtb hypoxia inh; calls as there; growth inhibition, %; measured here: M. tuberculosis growth (absorbance);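 0% = vehicle and 100% = reference antibiotic; read after six days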
# * hit, by the source's call; ? = inconclusive; nt = no result given. Compounds as they come. Share with any hit: about 4.1%.
# Below each compound: Bead autofluor, PrP UTR inh, RN4220 kill, Mtb hypoxia inh, Mtb hypoxia inh growth, BJeLR viability, ugtP null kill
O=C(NCc1cccc(Cl)c1)c1ccc2c(c1)SC1=NS(=O)(=O)CCN12
  2961, -4, 5.1, 10, 5, -11, 18
O=c1oc2ccccc2n1Cc1ccccc1
  4065, -11, 3.5, 12, 5, 11, 7
CCC(C(=O)OCC(=O)c1ccc(OC)cc1OC)c1ccccc1 (configuration not stated)
  3999, -34, 3.7, 9, -3, nt, -1
CCC(=O)Nc1sc2c(c1C(=O)OC)CCN(Cc1ccccc1)C2
  5163, -5, -9.2, 5, 17, -2, 2
COc1ccc(CC(=O)NCCS(=O)(=O)N2CCN(c3ccccc3)CC2)cc1OC
  nt, -11, 2.5, -2, 2, 8, 6
CCN(CC)c1nc2c(c(=O)[nH]c(=O)n2C)n1Cc1ccccc1Cl
  3980, -14, 4.9, 8, 5, -3, 7
Cc1cc(C(F)(F)F)nc(NCc2cccnc2)n1
  3318, -3, -0.9, 10, 6, -5, -2
COc1ccc(C(=O)NCC2OCCc3ccccc32)cc1 (configuration not stated)
  4579, -30, -0.6, nt, nt, -4, -3
OCc1ccccc1NC(=S)Nc1cccnc1
  25402*, -24, 1.5, 2, 4, 2, 0
Cc1ccc(C)c(NC(=O)c2nc(Cl)ccc2Cl)c1
  4460, -40, 1.8, 1, 7, 0, 4
COc1ccc(NC(=O)CSc2ccccc2)c([N+](=O)[O-])c1
  6352, -58, 3.6, 7, -3, 4, 1
CC1CCCCC1NC(=O)COC(=O)c1c2c(nc3ccccc13)/C(=C/c1ccco1)CC2 (configuration not stated)
  2646, 6, 27, 10, 1, 18, -9
CC(C)Oc1ccc(C(=O)OC(C)C(=O)NC2CCCCC2C)cc1 (configuration not stated)
  nt, -8, 1.5, -1, 0, -3, 0
CC(=O)c1cccc(NC(=S)NC(=O)CC(C)(C)C)c1
  25347*, -41, 0.7, 14, 15, -3, 8
Cc1cc(N=Cc2c(O)n(-c3cccc(Cl)c3)c(=O)c3ccccc23)no1
  2183, -9, -2.1, -6, 3, -8, -2
COc1cc(/C=C2/SC(=S)N(Cc3ccccc3)C2=O)ccc1OCC(=O)O
  2956, -5, nt, nt, nt, -6, nt
O=C1CC(c2ccco2)CC2=C1C=Nc1ccccc1N2 (configuration not stated)
  3599, -12, 2.7, 6, 0, -4, 5
COc1ccc(C2=NO[C@@H]3C(=O)N(c4cccc(C)c4C)C(=O)[C@H]23)cc1OC
  9642, -13, 8.2, 16, 6, -9, -2
Cc1cc(/C=C(\C#N)C(=O)NCc2cccs2)c(C)n1-c1ccc([N+](=O)[O-])cc1
  8315, -11, -6.8, 0, -2, -9, -3
COc1ccc(-n2nc(C(=O)NCC(=O)N3CCCC3)c3ccccc3c2=O)cc1Cl
  3745, -11, 2.3, -7, -2, 3, 4
O=C(NCC(c1cccs1)N1CCOCC1)c1ccc(Cl)nc1 (configuration not stated)
  3470, -11, 4.6, 8, -4, nt, 5
O=C(CCS(=O)(=O)c1ccc(Cl)cc1)OCC(=O)N1CCCCC1
  2432, -6, 25, 11, 8, -1, 19
CC(C)CCNC(=O)Cn1c2c(c(-c3ccccc3Cl)cc1=O)CCC2
  5120, -32, -12, 4, 16, 4, -13
CC1CN(C(=O)COC(=O)c2c(Cl)cccc2Cl)CC(C)O1 (configuration not stated)
  3492, -18, 3.0, 1, 19, -2, -1
O=C(/C=C/c1cc2ccccc2o1)c1ccccc1O
  4450, -41, 4.1, 7, 0, -5, -4
COc1ccccc1NC(=O)CN1CCN(C(=O)C2CCCO2)CC1 (configuration not stated)
  5140, -7, 2.3, 7, 4, -3, 0
CCC1(C)Cc2c(sc3nc(SC)nc(N)c23)CO1 (configuration not stated)
  2962, -6, 6.9, nt, nt, -2, -8
Cc1cccc(C(=O)NCCc2nnc(SCC(=O)Nc3nc(C)cs3)n2C)c1
  16360*, -8, 1.0, 5, 17, 4, -2
CC(=O)c1ccc(S(=O)(=O)NCCc2csc(-c3cccnc3)n2)cc1
  6179, -26, -2.0, 3, 11, 0, -1
O=C(COc1ccc(F)cc1Cl)Nc1cccc(S(=O)(=O)N2CCCC2)c1
  4088, -7, 1.6, -8, -4, nt, -8
COCCn1c(C)cc(C(=O)COC(=O)c2n[nH]c3ccccc23)c1C
  3768, 33, 8.0, -2, -7, 7, 6
COC(=O)c1cc(NC(=O)c2ccccc2)c(=O)oc1/C=C/Nc1ccc(Oc2ccccc2)cc1
  97551*, -1, 3.9, -11, 4, -4, -11
Cn1c(=O)n(C)c2cc(C=C3SC(=O)N(CC(=O)N4CCOCC4)C3=O)ccc21
  nt, nt, -0.2, -2, -8, nt, -12
COC(=O)/C=C1\SC(N2CCOCC2)=C(c2ccc(OC)cc2)C1=O
  4249, -12, 1.7, -5, 10, 6, -10
Cc1ccc2nc(SCC(=O)Nc3cc(C(C)(C)C)nn3-c3ccccc3)[nH]c2c1
  2190, -32, -5.1, 3, 2, 1, -19
O=C(O)c1ccn(Cn2cnc3ccccc32)n1
  2110, -10, 1.2, nt, nt, 4, 6
COc1ccccc1NC(=S)NCC1CCC(CNC(=S)Nc2ccccc2OC)CC1 (configuration not stated)
  5867, -10, 7.8, 11, 3, -1, 11
CC(=Nc1cccc(C)c1)c1sc2ccccc2c1O
  11124, -120, 5.9, 7, 7, 11, -6
C=CCNC(=S)N/N=C(\C)c1cccc(NC(C)=O)c1
  4038, -32, nt, nt, nt, -7, nt
CC(=O)OC(C(=O)NC1CCCCC1)c1cccc(C)c1 (configuration not stated)
  8273, -19, -3.0, 6, 12, -15, -4
O=C(CC(CC(=O)c1ccccc1)c1ccccc1)c1ccccc1
  3836, -7, 1.5, 8, 3, 4, 3
CCN1C(=O)C2C(c3ccc(SC4CCCCC4)cc3)N3CCCC[C@@]3(C(=O)OC)C2C1=O (some centres not stated)
  nt, nt, 5.7, 2, -4, nt, 7
COc1ccc(C=NNC(C)(C)C)c(OC)c1
  nt, nt, 2.8, 8, 12, nt, 38
O=C(c1ccccc1)N1CCCC(C(=O)N2CCCCCC2)C1 (configuration not stated)
  24585*, -6, 1.2, -3, 11, 4, -4
Cc1ccc(SCc2[nH]nc3c2C2(CCSCC2)C(C#N)=C(N)O3)cc1
  9358, -29, 7.0, -3, -2, -5, 1
CCN(CC)S(=O)(=O)c1cccc(NC(=O)CSc2nnc(N)s2)c1
  5116, -23, 2.0, 5, -1, 7, 7
O=C(CCC(=O)N1CCSc2ccccc21)NCc1ccc(Cl)cc1
  5679, -4, -7.9, 10, 10, 2, -2
CCCCC(CCC(=O)O)(C(=O)OCC)c1csc(Nc2ccccc2)n1 (configuration not stated)
  4497, -6, 7.4, 9, -6, 8, 2
Clc1ccc2[nH]c3c(NCC4CCCO4)ncnc3c2c1 (configuration not stated)
  nt, nt, -0.7, 10, 17, -1, -18
COc1ccc(/C=C/C(=O)Nc2c(C(=O)O)[nH]c3ccccc23)cc1OC
  3604, -23, 0.6, 2, 22, -1, -4
CC1CCCCC1NC(=O)CNC(=O)c1ccco1 (configuration not stated)
  6054, -21, 3.3, 11, -2, 4, 3
COc1ccc(C(CNC(=O)c2ccc(S(=O)(=O)Nc3ccccc3OC)cc2)N2CCCC2)cc1 (configuration not stated)
  19637*, -10, 2.4, 5, 5, nt, -1
Cc1noc(C)c1S(=O)(=O)N1CCCCC1
  9547, -6, 0.4, 4, 6, -7, -1
CN(CC(=O)Nc1cccc(F)c1)C(=O)c1ccc(-n2cncn2)c([N+](=O)[O-])c1
  6109, -4, 2.1, -13, -15, -4, 1
CCC1CCc2c(sc(NC(=O)c3cnccn3)c2C(N)=O)C1 (configuration not stated)
  3942, -34, 1.2, 7, 1, 10, 1
O=C(NCCN1CCCC1)c1ccc(Cn2c(=S)[nH]c3ccc(Br)cc3c2=O)cc1
  5401, -27, 13, 8, 22, -4, 3
Cc1[nH]c2ccccc2c1N=Nc1ccccc1C(=O)O
  10713, -11, 8.8, 17, -1, 3, 2
COc1ccc(/C=N/n2cncn2)cc1Cn1nc(C)c([N+](=O)[O-])c1C
  3869, -36, nt, nt, nt, 16, nt
Cc1oc(-c2ccccc2Cl)nc1CN1CCCN(C(=O)c2ccco2)CC1
  2763, -28, 3.9, 8, -3, 0, 8
Cc1ccnc(NC(c2ccccc2)c2ccc3cccnc3c2O)c1 (configuration not stated)
  3732, -8, 28, 22, 8, nt, 2

# 4 neighbouring records out of the list so far, quoted:
# Below each compound: Bead autofluor, PrP UTR inh, RN4220 kill, Mtb hypoxia inh, Mtb hypoxia inh growth, BJeLR viability, ugtP null kill
CCN(CC)S(=O)(=O)c1cccc(NC(=O)CSc2nnc(N)s2)c1
  5116, -23, 2.0, 5, -1, 7, 7
O=C(CCC(=O)N1CCSc2ccccc21)NCc1ccc(Cl)cc1
  5679, -4, -7.9, 10, 10, 2, -2
CCCCC(CCC(=O)O)(C(=O)OCC)c1csc(Nc2ccccc2)n1 (configuration not stated)
  4497, -6, 7.4, 9, -6, 8, 2
Clc1ccc2[nH]c3c(NCC4CCCO4)ncnc3c2c1 (configuration not stated)
  nt, nt, -0.7, 10, 17, -1, -18

# (further entries)
# Below each compound: Bead autofluor, PrP UTR inh, RN4220 kill, Mtb hypoxia inh, Mtb hypoxia inh growth, BJeLR viability, ugtP null kill
CCCc1nc2ccccc2c(=O)n1N=Cc1ccccc1O
  nt, nt, -11, 16, 20, nt, -2
Cn1c(=O)c2c(nc3n2CC(O)CN3c2ccccc2)n(C)c1=O (configuration not stated)
  4182, 3, 4.6, -10, 4, 7, 15
CN(C)CCCN(C(=O)c1ccco1)c1nc2ccc(Cl)cc2s1
  3533, -3, -8.0, 9, 11, -8, 6
COc1cc(NC(=O)C/C(C)=N/NC(=O)c2cccc(O)c2)c(OC)cc1Cl
  1982, -3, nt, nt, nt, -6, nt
CCC(C)C(N)c1cn(C(CC(N)=O)C(=O)N2CCNCC2)nn1 (configuration not stated)
  nt, nt, 4.2, 15, 3, nt, -7
COc1ccc(-c2nn(-c3ccccc3)cc2C(=O)Nc2ccc(C(=O)O)cc2)cc1OC
  5727, -8, 2.6, -9, 2, 2, 13
CCOC(=O)c1c(CN2CCN(CC#N)CC2)n(C)c2cc(Br)c(OC)cc12
  3884, -44, 5.4, 17, 4, -8, 9
O=C(CN1C(=O)NC2(CCCC2)C1=O)OCc1ccc(Br)cc1
  4705, -11, 3.2, 7, 4, -2, 2
CNC(=O)Cc1nc2ccccc2n1CC(=O)Nc1cc(C)cc(C)c1
  3327, -17, 5.1, 12, 7, 11, -2
COc1cccc(-c2nn(C)c3sc(C(=O)N4CCN(c5ccccc5)CC4)cc23)c1
  3780, 3, 0.5, nt, nt, -2, 6
CCOC(=O)C(=CNNc1cccc(Cl)c1)C(=O)OCC
  3917, -22, 12, 10, -6, 2, -12
CN(C(=O)c1ccc(NC(=O)Cc2ccc(NC(=O)C3CCCN(C(=O)C4CCCCC4)C3)cc2)cc1)C1CC1 (configuration not stated)
  3419, -6, 3.4, 4, 7, nt, 6
COCCN(CC(=O)NCC1CCCO1)C(=O)CCC(=O)Nc1cc(C)on1 (configuration not stated)
  4640, -9, 0.0, nt, nt, 0, 9
O=C(CN1CCN(C(=O)C2COc3ccccc3O2)CC1)Nc1ccccc1 (configuration not stated)
  5932, -11, 3.4, 4, -6, 7, 5
COC(=O)C1=C(C(=O)OC)C(c2cc([N+](=O)[O-])ccc2O)c2sc(=O)[nH]c2S1 (configuration not stated)
  4314, -9, 2.7, 19, 6, nt, 4
COCc1c(C(=O)N2CCc3ccccc32)oc2ccccc12
  6411, -15, 4.5, 2, -4, 3, -1
NS(=O)(=O)c1ccc(CCNS(=O)(=O)c2cccs2)cc1
  5956, -15, 3.8, 2, 11, -2, 7
CCOc1ccc(-c2c(C(=O)NN=Cc3ccoc3)nnn2-c2nonc2N)cc1
  nt, nt, 4.4, -3, -10, nt, 13
O=C(NCc1cc([N+](=O)[O-])ccc1O)c1cccnc1Sc1ccccc1Cl
  4344, -10, 33, 13, -11, 11, 9
O=C(CNS(=O)(=O)c1c(Cl)cccc1Cl)N1CCCCCC1
  3102, 8, 3.2, -2, 2, 10, 1
CCOC(=O)C(C)c1c(C(=O)c2ccc(C)nc2)c2ccccc2n1C (configuration not stated)
  nt, nt, 0.7, 11, 6, 3, 2
CCCN1C(=O)C(O)(C/C(C)=N/O)c2ccccc21 (configuration not stated)
  3235, -31, nt, nt, nt, -4, nt
Cc1ccc(NC(=O)C(C)OC(=O)Cc2c[nH]c3ccccc23)cc1 (configuration not stated)
  ?, 6, 0.7, -12, 5, 5, -7
Cc1nc(-c2cccnc2)sc1C(=O)Nc1ccc(Cl)cc1
  8568, -27, 2.4, 4, -2, 2, -8
